Screens (PubChem BioAssay)
VACV mCherry inh – qHTS for Stage-Specific Inhibitors of Vaccinia Orthopoxvirus: mCherry Reporter Primary qHTS; Vaccinia virus mCherry reporter infection, fluorescence; about a quarter of the inactives have no number; Potency, µM (titrated, usually from 36.5 µM), without a hit: at the highest dose activity change, negative = inhibition, actives largely listed as inhibitors; hit rate 0.63% among 310,000; AID 720579, 2013; active = well fitted inhibition curve with a large enough effect; inconclusive = small, poorly fitted or top-dose-only effect; inactive = no such curve, though single readings can be large or run the other way; tested in A549 cells; also: nearly all actives have a fitted effect of over 35% in size; inactives centre near -10
Vaccinia Venus – qHTS for Stage-Specific Inhibitors of Vaccinia Orthopoxvirus: Venus Reporter Primary qHTS. Vaccinia virus Venus reporter expression, fluorescence. AID 720580, 2013. hit rate 0.46% among 330,000. Potency, µM (highest dose often 36.5 µM), for the others: at the highest dose activity change, negative = inhibition, most hits filed as inhibitors; active means well fitted inhibition curve with a large enough effect; inconclusive means small, poorly fitted or top-dose-only effect; inactive means no such curve, though single readings can be large or run the other way; tested in A549 cells; also: nearly all actives have a fitted effect of over 30% in size; inactives centre near -10
An asterisk follows results filed as active; i = inactive; ? = inconclusive; . = not tested or not shown; [ ] = dose if it differs, or a comment. % is scaled to controls: 0 for no effect and ±100 for the full control effect; potency is read from the fitted curve at half-maximal effect.

Second line of a record – Vaccinia Venus	VACV mCherry inh
> Cc1nc(N2CCOCC2)c2c(C(=O)N3CCN(c4ccccc4F)CC3)c(C)oc2n1
  -7%	i
> CCOC(=O)C(CC(=O)O)N1CCCCC1 (stereo not given)
  -9%	-15%
> O=C1Nc2cc(C(=O)NCCCN3CCCC3)ccc2S/C1=C/c1cccc(Cl)c1
  ?	?
> CC(=O)c1cccc(NC(=S)N2CCN(CCN3C(=O)c4cccc5cccc(c45)C3=O)CC2)c1
  0%	-25%
> Cc1[nH]c2ccccc2c1C(=O)CSc1nc2ccccc2c(=O)n1CCCN1CCOCC1
  -14%	.
> COc1cc(OC)c(/C=N/NC(=O)c2ccc(NC(C)=O)cc2)cc1Br
  0%	-1%
> Nc1ccc(Cl)c(S(=O)(=O)Nc2ccccc2Cl)c1
  -6%	-4%
> O=C(Nc1cccc(O)c1)c1cccc(S(=O)(=O)N2CCCC2)c1
  -13%	.
> O=C(CSCCO)Nc1cccc([N+](=O)[O-])c1
  -17%	-14%
> COC(=O)c1cc(NC(=O)c2sc3ncn(Cc4cccc(F)c4)c(=O)c3c2C)cc(C(=O)OC)c1
  0%	-3%
> O=C(O)CCCN1C(=O)C(=O)/C(=C(/O)c2ccc(Cl)cc2)C1c1ccccc1 (stereo not given)
  0%[7.34 µM]	i[7.34 µM]
> CCc1ccccc1NC(=O)c1ccc2c(c1)N(Cc1cc(C)ccc1C)C(=O)c1ccccc1S2(=O)=O
  -9%	-10%
> Cc1ccc(-c2cc(C(=O)Nc3cccnc3)c3ccccc3n2)o1
  0%	-21%
> CCN(CC)CCN(C(=O)c1ccc(CN2CCCCC2)o1)C(C(=O)NC1CCCCC1)c1ccc(F)cc1 (stereo not given)
  -3%	-13%
> Cc1ccc(S(=O)(=O)c2ccc(C)cc2)cc1
  -10%	-19%
> CSCC[C@H](NC(=O)c1cccnc1)c1nnc2ccccn12
  -4%	-17%
> CCOC(=O)c1c(C)[nH]c(C(=O)CN2C(=O)NC(C)(c3ccc4ccccc4c3)C2=O)c1C (stereo not given)
  -15%	-24%
> COc1cccc(CNC(=O)CCC2CCCN(C(=O)c3cc4ccccc4o3)C2)c1 (stereo not given)
  -20%	-19%
> Cc1nc2sc3c(c2c(=O)o1)CCC3
  26%	.
> CCN(CC)CC(O)c1ccc(C2CCCC2)cc1 (stereo not given)
  -4%	-14%
> CC(=O)c1ccc(NC(=O)CSc2cn[nH]n2)cc1
  0%	-5%
> Cc1c(C(=O)N2CCC(C)CC2)c(S(=O)(=O)NCc2ccccc2)c(C)n1C
  -11%	-13%
> CCN(CC)c1ccc2cc(-c3nc(-c4cccs4)no3)c(=O)oc2c1
  16%	-12%
> CCOC(=O)C1CCCN(C(=O)C2CCN(c3nnc(-n4cccc4)s3)CC2)C1 (stereo not given)
  -7%	?
> Cc1cc(C(=O)Nc2cccc(O)c2)co1
  -13%	-9%[1.46 µM]
> COC(=O)c1cc(S(=O)(=O)N2CCN(c3cccc(C)c3C)CC2)c[nH]1
  ?	-25%
> N#C/C(=N\Nc1ccc(Cl)cc1)C(=O)c1ccccc1
  ?	-24%
> Cc1ccc(NC(=S)NNc2ncc(C(F)(F)F)cc2Cl)c(C)c1
  ?	-26%
> COC(=O)C1=C(c2c(C)noc2C)C[C@@H]2CC[C@H]1N2C(=O)NCCO
  -3%	i
> CCC(=O)Nc1cc(C)c(NC(=O)CCc2ccccc2)cn1
  -11%	-23%
> CN(C)CCNC(=O)CN1C(=O)CCn2nc(-c3cn(C)c4ccccc34)cc21
  5%	-16%
> O=C(CCN1C(=O)/C(=C/c2ccccc2)SC1=S)NCCCN1CCOCC1
  -23%	-18%
> COc1cccc(Cc2nc3ccccc3nc2SCC(=O)N2CCCCC2C)c1 (stereo not given)
  3%	-8%
> CCC(SCC(=O)OC)C(=O)Nc1nnc(C(C)C)s1 (stereo not given)
  -10%	i
> CCCn1cc(S(=O)(=O)c2ccc(CC)cc2)c(=O)c2cc(F)c(N(CC)CC)cc21
  -21%	-29%
> Cc1cc(NC(=O)CS(=O)(=O)c2cn(Cc3cccc(F)c3)c3ccccc23)no1
  -15%	-19%
> CCC[C@H]1CN(c2ccccc2)C(=O)[C@@H]1CC(=O)NC
  -14%	-23%
> COc1ccc(Cl)cc1N1C(=NC(=O)C2CCCCC2)SC2CS(=O)(=O)CC21 (stereo not given)
  -2%[7.34 µM]	i[7.34 µM]
> CCCN(CC(=O)Nc1ccccc1OC)C(=O)CN1C(=O)NC2(CCCCC2)C1=O
  -19%	-7%
> Cc1cccc2c1N(N=O)CCC2
  -13%	-12%
> O=C(Nc1ccc(Cl)cc1)C1C2C=CC3(O2)C1C(=O)N(CCCN1CCCCC1)C3C(=O)NC1CCCCC1 (stereo not given)
  1%	i
> O=C(N/N=C/c1ccncc1)c1ccncc1
  -3%	-9%
> Cc1c(OCC(=O)NC(Cc2ccc(Cl)cc2)C(=O)O)ccc2c(-c3ccccc3)cc(=O)oc12 (stereo not given)
  -14%	-7%
> Cc1cc(N2CCCCCC2)nc2ccc(F)cc12
  -5%	-1%
> CCC1(C)Cc2c(sc3nnn(CC(=O)Nc4ccccc4C)c(=O)c23)CO1 (stereo not given)
  -13%	-23%
> COc1ccc(C)cc1-n1[nH]nnc1=S
  -9%	i
> FC(F)(F)c1cccc(NC(=S)Nc2cccc(NC(=S)Nc3cccc(C(F)(F)F)c3)n2)c1
  10%	?
> COc1ccc(C)cc1S(=O)(=O)NCC(c1ccco1)N1CCc2ccccc2C1 (stereo not given)
  -16%	i
> O=C(NCCNC(=O)c1ccco1)c1ccco1
  -5%	7%
> Oc1ccccc1CNc1nc2ccccc2n1CCN1CCCCC1
  -1%	-8%
> Cn1ccsc1=NC(=O)c1ccc(CS(C)(=O)=O)cc1
  5%	-6%
> Cc1cc(CNC(=O)C2CCC(=O)N(CCc3cccc(F)c3)C2)nn1C (stereo not given)
  -9%	-9%
> O=C(Nc1cccc(C(F)(F)F)c1)c1cc2nc(-c3ccccc3)cc(C(F)(F)F)n2n1
  ?	?
> Cc1cccc(N2CCN(C(=O)c3ccc4c(c3)c(C)c(C)n4C)CC2)c1C
  -12%	i
> Cc1ccc(S(=O)(=O)N2CCN(S(=O)(=O)N(C)C)CC2)cc1
  -17%	i
> N#Cc1nc(-c2ccco2)oc1NCc1ccco1
  -2%	i
> COC(=O)CCCC1=CC2=CC(=O)C(C)(OC(=O)c3cccs3)C(=O)C2=CN1CC(C)C (stereo not given)
  3%	13%
> C[C@H]1COC[C@@H](C/C=C/c2ccccc2)N1c1ccccc1
  -11%	i
> COc1ccc(OC)c(S(=O)(=O)Nc2ccc(OCC(=O)O)cc2)c1
  -9%	i
> CC(C)(C)NC(=O)Cn1nnc(-c2ccccc2NC(=O)c2ccco2)n1
  -11%	i

(cont.)
Second line of a record – Vaccinia Venus	VACV mCherry inh
> Cn1c(CCN2CCCCC2)nc2cc(NC(=O)NC3CCCCC3)ccc21
  -19%	-25%
> Cc1ccn2c(Nc3ccccc3C)c(-c3ccccc3)nc2c1
  -12%	i
> CC1C(=O)N(Cc2cn(Cc3ccco3)nn2)CCS(=O)(=O)N1Cc1ccc(-c2ccncc2)cc1 (stereo not given)
  -3%	i
> CCOC(=O)C(CCCCC(NC(C)=O)(C(=O)OCC)C(=O)OCC)(NC(C)=O)C(=O)OCC
  -11%	-4%
> C[C@H](CO)N1C[C@H](C)[C@@H](CN(C)S(=O)(=O)c2ccc(F)cc2)Oc2ccc(NS(=O)(=O)c3ccc(F)cc3)cc2C1=O
  -4%	i
> CCCSP1(=S)NCCCO1 (stereo not given)
  -14%	.
> Cc1cc(C)cc(-n2c(SCC(=O)Nc3ccc4c(c3)OCO4)nc3c([nH]c4ccccc43)c2=O)c1
  -1%	4%
> Cc1ccc(SCCC(=O)OCC(=O)NCC2CCCCC2)cc1
  -11%	-7%
> Cc1nc(COc2cccc(Cl)c2)sc1C(=O)/C=C/N(C)C
  -20%	-22%
> Cn1cc(/C=N/NC(N)=S)c2ccccc21
  ?	?
> Cc1ccc(-n2ncc3c2CCCC3NC(=O)c2ccoc2)cc1C (stereo not given)
  -25%	?
> CC(C)(C)C(=O)Nc1ccc(NC(=O)C(C)(C)C)cc1
  -10%	-3%
> C=CCn1cc(Cl)c(=O)n(CC=C)c1=O
  -4%	-3%
> Cc1cccc(N2CCN(S(=O)(=O)c3cc4c(cc3Cl)NC(=O)CO4)CC2)c1C
  -12%	i
> Cc1cc(/C=C2\C(=O)NC(=O)N(c3cccc(Br)c3)C2=O)c(C)n1C
  -5%	-4%
> O=C1CCCc2c1[nH]c1c(Br)cccc21
  11µM*	.
> N=c1c(C(=O)NCc2ccccc2)cc2c(=O)n3ccccc3nc2n1CCCN1CCOCC1
  -1%	-13%
> COc1ccc(NC(=O)Cn2c(=O)n(Cc3nc(C)no3)c(=O)c3cc4c(cc32)OCO4)cc1OC
  -9%	-16%
> CC(C)c1ccccc1NC(=O)CNC(C)c1ccc(F)cc1 (stereo not given)
  -8%	i
> CCCc1cc(=O)[nH]c(SCC(=O)N2CCN(S(=O)(=O)c3ccc(Cl)cc3)CC2)n1
  -13%	-6%
> O=C(NC1CC1)c1ccc(-c2cnc3cccnn23)cc1
  -7%	i
> C#CCNc1ccc([N+](=O)[O-])cc1
  -9%	-2%
> COc1ccccc1N(C(C)=O)c1nc(C)cc(C)c1C#N
  -24%	.
> Cc1ccc(C(=O)NC(C)c2ccc(S(N)(=O)=O)cc2)s1 (stereo not given)
  -8%	23%
> Cc1ccccc1OCc1n[nH]c(=S)n1Cc1ccccc1
  -12%	i
> Nc1[nH]c(C(=O)c2ccc(Br)cc2)c(-c2ccc(Br)cc2)c1C(=O)NCCc1c[nH]c2ccccc12
  -11%	i
> CCc1ccc(C(=O)c2cn(CC(=O)Nc3ccc4c(c3)OCO4)c3ccc(CC)cc3c2=O)cc1
  -29%	-27%
> COc1cc2c(cc1OC)/C(=C/C(=O)c1ccc(F)cc1)NCC2
  -20%	?
> CC(C)Cn1cnc2c(c(-c3ccccc3)c(-c3ccccc3)n2Cc2ccco2)c1=N
  ?	?
> COc1cccc(CNc2ncnc3c2nnn3C)c1
  -17%	i

Record cards, from the list above. Order of screens: Vaccinia Venus, VACV mCherry inh
COc1cccc(CNc2ncnc3c2nnn3C)c1 is listed as -17%, i
CCc1ccc(C(=O)c2cn(CC(=O)Nc3ccc4c(c3)OCO4)c3ccc(CC)cc3c2=O)cc1 is listed as -29%, -27%

Next part
Second line of a record – Vaccinia Venus	VACV mCherry inh
> C=CCNS(=O)(=O)c1ccc(OCC(=O)OCC)cc1
  0%	i
> CCc1ccc(-n2nc(CO)c(C(=O)NCCCc3ccccc3)n2)cc1
  -8%	3%
> CSCCC(NC(=O)c1ccccc1)C(=O)N1CCN(C(C)=O)CC1 (stereo not given)
  -8%	-11%
> CCn1c(SCc2ccccc2Cl)nc2ccccc21
  -26%	.
> Cc1ccc(-c2nn(Cc3ccccc3)cc2C=O)cc1C
  ?	-3%
> COC(=O)CSC1=C(C#N)C(c2ccccc2)CC(=O)N1 (stereo not given)
  ?	-5%
> COC(=O)[C@@]1(Cc2ccccc2)[C@H]2C(=O)N(C)C(=O)[C@H]2[C@H]2CN=C(SCc3ccc(C#N)cc3)N21
  -3%	-3%
> O=C(O)c1cc(NC(=O)c2ccc([N+](=O)[O-])cc2)cc(NC(=O)c2ccc([N+](=O)[O-])cc2)c1
  -22%	-9%
> Cc1nc(SCC(=O)NCC2COc3ccccc3O2)c2c(C)c(C)sc2n1 (stereo not given)
  -15%	-13%
> O=C1CC(c2nc(-c3cccc(Cl)c3)no2)CN1c1ccc2c(c1)OCCO2 (stereo not given)
  3%	8%
> COc1ccc(/C=N/NC(=O)CCn2nc(C)cc2C)cc1O
  -4%	-24%
> Cn1c(C(=O)O)c(CC(=O)N2CCN(Cc3ccccc3)CC2)c2ccccc21
  0%	i
> CCC1(c2ccccc2)NC(=O)N(CC(=O)Nc2ccc(S(N)(=O)=O)cc2)C1=O (stereo not given)
  3%	3%
> Cn1c(-c2ccc[nH]c2=O)nc2cc(Cl)ccc21
  -2%	-5%
> COc1cc(NC(=O)COC(=O)CNS(=O)(=O)c2ccc(F)c(F)c2F)cc(OC)c1
  -15%	-17%
> CCOC(=O)C(=O)Nc1sc(C(=O)N(CC)CC)c(C)c1C#N
  -7%	i
> N#Cc1c(-c2ccc(Cl)cc2)c(-c2ccc(Cl)cc2)nn(CCOC(=O)CCC(=O)O)c1=O
  -15%	-3%
> O=C(Nc1ccc2oc(-c3cc(Br)ccc3Cl)nc2c1)c1ccc2ccccc2c1
  -27%	?
> O=C1NC(c2ccc3c(c2)OCO3)Nc2ccccc21 (stereo not given)
  ?	.
> CCc1nc2ccc(C(=O)N3CCN(C(C)=O)CC3)cn2c1N(C=O)Cc1ccc(OC)cc1
  6%	i

A few values from the entries so far.
Result for CCC1(c2ccccc2)NC(=O)N(CC(=O)Nc2ccc(S(N)(=O)=O)cc2)C1=O (stereo not given) in Vaccinia Venus: 3%
Result for CCOC(=O)C(=O)Nc1sc(C(=O)N(CC)CC)c(C)c1C#N in Vaccinia Venus: -7%
Result for O=C(O)c1cc(NC(=O)c2ccc([N+](=O)[O-])cc2)cc(NC(=O)c2ccc([N+](=O)[O-])cc2)c1 in VACV mCherry inh: -9%
Result for C=CCNS(=O)(=O)c1ccc(OCC(=O)OCC)cc1 in Vaccinia Venus: 0%
Result for COC(=O)CSC1=C(C#N)C(c2ccccc2)CC(=O)N1 (stereo not given) in VACV mCherry inh: -5%
